Vc quorum ag = inducers of Vibrio cholerae quorum light production without autoinducers; V. cholerae BH1578 lux reporter, luminescence, 6 h; activation, % at 18.7 µM; 0.16% of 350,000 active; AID 588436; in the data active = activation mostly above about 9.7%, no sharp cut-off; note: not every result past the cut was called active; inactives centre near 0; reference of the scale not given here
Rv3671c inh = Rv3671c (M. tuberculosis) protease inhibition | P9WHR9 | inhibition, % at 5.96 µM | AID 2606 | 0.048% of 320,000 active; in the data active = inhibition above about 38%;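 note: extracellular domain of Rv3671c used as enzyme; 0% = enzyme with DMSO and 100% = no enzyme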
Target sequence (P9WHR9 whole entry, looked up, the tested form may be a part): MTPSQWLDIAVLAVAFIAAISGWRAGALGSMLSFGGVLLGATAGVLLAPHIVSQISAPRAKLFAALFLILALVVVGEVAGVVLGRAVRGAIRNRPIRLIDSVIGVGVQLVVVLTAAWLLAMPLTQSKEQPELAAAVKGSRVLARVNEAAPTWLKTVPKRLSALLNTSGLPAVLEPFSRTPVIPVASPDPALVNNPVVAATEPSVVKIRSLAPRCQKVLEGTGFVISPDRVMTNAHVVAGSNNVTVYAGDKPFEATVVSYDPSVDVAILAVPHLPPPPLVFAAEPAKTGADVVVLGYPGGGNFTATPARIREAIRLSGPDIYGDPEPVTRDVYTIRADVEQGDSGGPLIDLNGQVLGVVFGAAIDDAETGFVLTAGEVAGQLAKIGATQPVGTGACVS
DUSP3 inh = DUSP3 (human) phosphatase inhibition | 0.52% of 290,000 active | AID 1654 | recombinant VHR phosphatase, pNPP absorbance | inhibition, % at 13.3 µM; in the data active = inhibition above about 50%; note: some compounds called inactive have numbers as strong as hits
PfHsp40 yeast = compounds rescuing yeast from Plasmodium falciparum HSP40 toxicity. growth rescue, % at 12.5 µM. 0.68% of 340,000 active. S. cerevisiae expressing PfHsp40, growth rescue, ATP luminescence; in the data active = growth rescue above about 28%, passing the limit was not always enough;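 note: yeast W303a lacking pdr1 and pdr3 grown in galactose medium; growth measured after three days at 30 °C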
PriA SSB inh = inhibitors of Klebsiella pneumoniae PriA binding to SSB C-terminal tail; inhibition, % at 33 µM; AlphaScreen SSBct-PriA binding, biotinylated peptide; 0.6% of 430,000 active; in the data active = inhibition mostly above about 37%, no sharp cut-off; inactive = mostly below about 20%;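 note: plate controls were negative control peptide for no effect and reference peptide for full effect; strong numbers were not always called active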
Active calls of the source: *; i = inactive; . = not tested or not shown; & = joins results of further samples. The list is partial, so the mix of outcomes need not match the whole.

Keys: A = Vc quorum ag; B = Rv3671c inh; C = DUSP3 inh; D = PfHsp40 yeast; E = PriA SSB inh
(1) NC1C2CN(c3nc4c(cc3F)c(=O)c(C(=O)O)cn4-c3ccc(F)cc3F)CC12 (stereo unspecified)
  A: -1.3; B: 5; C: 21; D: 1.1; E: -2

(2) Nc1nc2c(ncn2COCCO)c(=O)[nH]1
  A: 4.2; B: 7; C: 5; D: -0.9; E: -4

(3) C[C@H]1[C@H](NC(=O)C(=NOC(C)(C)C(=O)O)c2csc(N)n2)C(=O)N1S(=O)(=O)O
  A: -0.6; B: 2; C: .; D: 0.0; E: -1

(4) Nc1ccn([C@@H]2CS[C@H](CO)O2)c(=O)n1
  A: .; B: -2; C: 26; D: .; E: .

(5) N[C@@H](CCC(=O)N[C@@H](CSN=O)C(=O)NCC(=O)O)C(=O)O
  A: i; B: 1; C: .; D: -0.8; E: -3

(6) CCN(CC)CCNC(=O)c1ccc(N)cc1
  A: -0.5; B: -6; C: -18; D: -0.4; E: 2

(7) Cc1nnc(SCC2=C(C(=O)O)N3C(=O)C(NC(=O)Cn4cnnn4)C3SC2)s1 (stereo unspecified)
  A: 0.8; B: 7; C: 17; D: -1.8; E: 6&-3

(8) Nc1cc(=O)[nH]c(SCc2ccccc2)n1
  A: i; B: .; C: .; D: .; E: .

A few values from above.
compound 1 @ PfHsp40 yeast = 1.1
compound 2 @ Vc quorum ag = 4.2
compound 3 @ Vc quorum ag = -0.6

Single records, from the list above. Values in the order: Vc quorum ag | Rv3671c inh | DUSP3 inh | PfHsp40 yeast | PriA SSB inh
`CCN(CC)CCNC(=O)c1ccc(N)cc1` is listed with -0.5 | -6 | -18 | -0.4 | 2
`Nc1nc2c(ncn2COCCO)c(=O)[nH]1` is listed with 4.2 | 7 | 5 | -0.9 | -4
`N[C@@H](CCC(=O)N[C@@H](CSN=O)C(=O)NCC(=O)O)C(=O)O` is listed with i | 1 | . | -0.8 | -3
`C[C@H]1[C@H](NC(=O)C(=NOC(C)(C)C(=O)O)c2csc(N)n2)C(=O)N1S(=O)(=O)O` is listed with -0.6 | 2 | . | 0.0 | -1

From PubChem
